Screens deposited in PubChem by several laboratories.
rRNA inh HTS: inhibits bacterial ribosomal RNA function over humanized ribosomes; 350,000 tested, 1.6% active; GFP signal change (wild-type ribosome), % (test concentration not listed); E. coli WT GFP vs humanized-ribosome RFP mutants, fluorescence, 24 h; active compounds read low; DMSO median 0, no signal -100;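 active = significant combined selectivity score with lowered wild-type GFP, culture density cut under 30%, mutant RFP and density less affected; inactive = any of these conditions unmet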; note: one replicate is shown; some compounds called inactive have numbers as strong as hits
ALR H2O2 inh: inhibitors of human sulfhydryl oxidase ALR | P55789 | purified ALR, DTT oxidation, H2O2 HRP-luminol luminescence | inhibition, % (concentration not given with the values) | 290,000 tested, 3.8% active | AID 485317;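 active = mean and each replicate at 75% or more; inconclusive = only one of the two met; inactive = neither met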;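 note: stock transfer was 7.5 nL into about 7.5 µL; 0% = neutral wells and 100% = wells with inactivated enzyme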
UCH37 DUB inh: inhibitors of human deubiquitinating enzyme UCH37 | purified proteasome/UCH37, Ub-AMC cleavage fluorescence | 330,000 tested, 0.33% active | Q9Y5K5 | AID 588478 | inhibition, % (concentration not given with the values);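 active = mean of two replicates above 20%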;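 note: 0% = compound-free wells with enzyme and 100% = wells lacking proteasome; stock transfer was 100 nL into about 20 µL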
Target sequence (Q9Y5K5 whole entry, looked up): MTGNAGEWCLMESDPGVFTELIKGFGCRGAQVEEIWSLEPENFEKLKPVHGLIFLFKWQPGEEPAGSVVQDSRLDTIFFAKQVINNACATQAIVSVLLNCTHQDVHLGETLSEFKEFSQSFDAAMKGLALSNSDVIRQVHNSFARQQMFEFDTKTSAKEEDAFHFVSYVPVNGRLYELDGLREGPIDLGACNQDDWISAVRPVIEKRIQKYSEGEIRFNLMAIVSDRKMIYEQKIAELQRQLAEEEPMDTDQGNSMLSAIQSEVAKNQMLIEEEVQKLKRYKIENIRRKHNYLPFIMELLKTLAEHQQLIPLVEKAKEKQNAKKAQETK
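Schedule: 30 min plus 25 min, room temperature / Material: human UCH37 within purified proteasomes / Technique: AMC fluorescence intensity at 355/460 nm / Buffer or medium: pH 7.4 Tris-HCl (50 mM) with ovalbumin, ATP-MgCl2, DTT / Controls: wells without proteasome as full block, compound-free enzyme plus substrate as uninhibited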
HNF4A DNA FP: change in binding of human HNF4 alpha to DNA; HNF4a-FITC DNA binding, fluorescence polarization, 1 h; AID 1224865; P41235; 360,000 tested, 0.3% active; activity change, % at 10 µM; in the data active = activity change above about 30%, passing the limit was not always enough;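 note: controls were the assay level and a saturating level of protein; the project sought stronger binding though the title names inhibitors; some compounds called inactive have numbers as strong as hits; positive values seem to mean higher polarization but the record does not say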
Target sequence (P41235 whole entry, looked up): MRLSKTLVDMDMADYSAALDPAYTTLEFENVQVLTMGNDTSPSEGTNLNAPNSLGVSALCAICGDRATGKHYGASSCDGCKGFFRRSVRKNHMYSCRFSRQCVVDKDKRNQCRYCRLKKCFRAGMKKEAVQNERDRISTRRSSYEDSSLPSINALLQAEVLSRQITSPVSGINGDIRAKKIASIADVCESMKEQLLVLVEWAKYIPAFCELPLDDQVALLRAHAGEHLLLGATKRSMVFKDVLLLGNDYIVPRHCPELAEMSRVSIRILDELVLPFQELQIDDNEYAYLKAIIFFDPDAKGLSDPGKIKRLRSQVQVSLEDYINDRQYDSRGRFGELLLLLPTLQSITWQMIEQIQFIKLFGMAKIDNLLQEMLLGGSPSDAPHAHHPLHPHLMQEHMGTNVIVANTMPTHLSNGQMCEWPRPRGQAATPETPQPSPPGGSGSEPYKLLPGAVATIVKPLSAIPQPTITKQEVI
FGF22 binding: binders of recombinant human FGF22 by thermal shift; Q9HCT0; SYPRO orange fluorescence; percent of sucrose octasulfate shift, DMSO zero; 340,000 tested, 1.5% active; calls only at 9.99 µM; AID 651658;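 active = melting point raised past a set limit in the mean and every replicate; inconclusive = no clear call; three in four hits are not shown here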
Target sequence (Q9HCT0 whole entry, looked up): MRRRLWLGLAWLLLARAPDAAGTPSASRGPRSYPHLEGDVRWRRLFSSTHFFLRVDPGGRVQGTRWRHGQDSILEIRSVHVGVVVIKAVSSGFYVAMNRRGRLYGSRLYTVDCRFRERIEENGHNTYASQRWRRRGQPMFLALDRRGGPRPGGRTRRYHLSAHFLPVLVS
E coli growth: E. coli growth inhibition; Escherichia coli growth, OD600, 23 h; active compounds read low; OD600 absorbance (test concentration not listed); AID 1053175; 330,000 tested, 0.21% active;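 active = OD600 absorbance below the run mean of sample wells minus 3.6 SD, in any replicate, cut at about 0.56 in these data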;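 note: stock transfer was 300 nL into about 60 µL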
B2AR ag: agonists of human beta-2 adrenergic receptor inducing internalization; P07550; Am2.2-beta2AR cells, FAP receptor internalization, flow cytometry; reference of the scale not given here; response, % (test concentration not listed); 340,000 tested, 0.43% active; AID 504454;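 active = response above a set limit, near 3 SD of response in nonfluorescent compounds, cut at about 42% in these data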;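 note: stock transfer was 100 nL into about 11 µL; a reference agonist was the positive control; negative values mostly stem from fluorescent compounds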
rRNA inh HTS OD600: recorded beside rRNA inh HTS, whose call it bears; OD600 change, %; measured here: OD600 growth;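 optical density of the mix in the first replicate; 0 = DMSO median and -100 = no signal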
rRNA inh HTS RFP: second read-out of rRNA inh HTS, no call of its own (marks repeat the call); RFP signal change, %; measured here: RFP humanized mutant strains;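 first replicate; 0 = DMSO median and -100 = no signal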
* hit, by the source's call; i = inactive; ? = inconclusive; . = not tested or not shown; & = joins results of further samples. Some of the compounds tested. The share of hits here may be higher or lower than overall.

The line under a structure holds: rRNA inh HTS	rRNA inh HTS OD600	rRNA inh HTS RFP	ALR H2O2 inh	UCH37 DUB inh	HNF4A DNA FP	FGF22 binding	E coli growth	B2AR ag
Cn1c(CC(=O)Nc2ccc(F)cc2)nnc1SCC(=O)Nc1nncs1
    12.1	11.8	0.3	1.9	-0.2	0.0	i	0.712	-2.0
CCCN1CCC2(CC1)C(C#N)=C(N)Oc1c2sc2nc(C)cc(C)c12
    .	.	.	11.1	3.7	1.2	.	0.771	-24.9
O=C(C1CCN(S(=O)(=O)c2cccc3cccnc23)CC1)N1CCN(c2ccccc2)CC1
    1.3	0.2	5.5	58.7	6.9	0.3	i	0.756	-2.1
COC(=O)C1=C(C(=O)OC)C(c2ccc(OC)c(OC)c2)c2sc(=O)[nH]c2S1 (stereo unspecified)
    3.0	-1.8	-0.4	19.0	6.4	-1.4	i	0.709	9.3
COc1ccc2oc(C(=O)OCC(=O)NCc3ccc(OC)c(OC)c3)c(C)c2c1
    1.9	30.0	0.9	.	-19.2	-0.5	i	0.677	10.9
CCOC(=O)N1CCC(=NNC(N)=O)CC1
    25.1	10.7	2.0	-2.4	-0.7	1.9	i	0.734	-6.8
O=C(COC(=O)c1ccc(Br)o1)NC1CCCCC1
    -4.1	7.0	1.2	5.1	1.8	4.7	i	0.713	-1.0
CCCCNC(=O)N1CCN(C/C=C/c2ccccc2)CC1
    11.5	5.1	3.5	0.4	2.1	-4.4	i	0.635	5.3
CCOc1ccc(S(=O)(=O)N2CCN(C(=S)NCc3ccco3)CC2)cc1
    .	.	.	-18.1	3.4	-4.3	.	0.698	-6.7
Cc1ccc2c(c1)cc(C(=O)N[C@@H](Cc1ccccc1)C(=O)O)n2C
    0.7	-4.3	1.0	3.1	-2.2	-2.0	i	0.674	8.8
CC(=O)N1CCCC(C(=O)c2ccc3c4c(cccc24)CC3)C1 (stereo unspecified)
    .	.	.	-11.9	-36.4	-0.4	.	0.723	3.8
COc1ccc(-n2nnnc2CNC(=O)c2ccc(S(=O)(=O)N3CCOCC3)cc2)cc1
    7.8	5.8	-0.3	-1.1	1.9	5.7	i	0.664	-4.1
CCOCCCNc1nc2c(-c3ccccc3)nnn2c2ccccc12
    8.4	17.7	0.4	0.0	-224.6	-0.6	i	0.815	4.3
CCc1ccccc1NC(=O)COC(=O)c1c(C)nsc1NC
    13.5	7.2	0.2	-1.2	5.1	2.4	i	0.684	5.5
O=C(COC(=O)c1c(F)cccc1F)NCCNC(=O)COC(=O)c1c(F)cccc1F
    6.0	11.5	-0.7	1.0	3.0	2.9	i	0.66	0.6
COc1ccccc1N1CC(C(=O)Nc2nnc(SCC(=O)NCC3CCCO3)s2)CC1=O (stereo unspecified)
    6.1	11.4	-0.2	0.1	3.4	0.2	i	0.71	4.1
O=C(NCCc1ccccc1)C(=O)Nc1ccc2c(c1)OCCO2
    4.3	3.4	9.1	-12.2	3.7	3.2	i	0.678	3.6
Nc1nnc(SCC(=O)OCC(=O)Nc2ccc(Br)cc2F)s1
    -5.1	4.6	-5.2	-4.6	5.0	-3.1	i	0.668	9.8
C=CCOn1c(=O)c(-c2ccc(OC)cc2)[n+]([O-])c2ccccc21
    .	.	.	?	7.6	-2.7	.	0.618	-18.6
O=C(NCCNC(=O)c1cc(Cl)ccc1Cl)c1cnccn1
    7.3	13.9	-2.2	2.0	.	-0.6	i	.	7.4
NNC(=O)c1cc(C2CC2)nc2ccc(Br)cc12
    8.3	5.0	2.3	-3.6	4.6	2.6	i	0.676	-1.7
COc1ccc(C)cc1NC(=O)n1ncc2c(C)cccc21
    8.4	11.6	-0.5	.	0.3	5.0	i	0.679	-4.7
COc1ccc(CCCc2nnc(SCC(=O)Nc3cc(C)ccc3C)o2)cc1
    .	.	.	-0.5	2.1	-1.6	.	0.664	-3.0
Cc1cc(C)c(S(=O)(=O)Nc2ccc3c4c(cccc24)CC3)c(C)c1
    .	.	.	-2.1	2.4	12.2	.	0.681	15.1
Fc1cccc(CCN2CCNC[C@@H]2Cc2ccccc2)c1
    4.3	-15.1	4.3	-7.8	1.7	2.5	i	.	-8.7
Cc1ccc(C(=O)NCCCn2ccnc2)o1
    .	.	.	3.3	-1.8	-0.8	.	0.694	-1.1
CCOc1cccc(-c2c(C(=O)N/N=C/c3cccnc3)nnn2-c2nonc2N)c1
    -2.3	4.8	-1.2	2.4	.	2.7	i	.	-6.2
CNC(=O)NC(=O)CSc1nc2ccccc2n1CCOC
    .	.	.	-5.5	2.8	1.5	.	0.725	-5.1
C/C(=C\c1ccccc1)C(=O)Nc1cc(C)on1
    .	.	.	3.7	4.6	1.5	.	0.684	0.3
COc1cc(C)c(S(=O)(=O)Nc2ccc(CC(=O)O)cc2)cc1C
    .	.	.	-11.4	2.7	-0.3	.	0.7	-1.9
Cc1ccc(N2C(=O)c3ccccc3C2=O)nc1
    3.9	16.8	-2.8	-3.5	1.0	-2.0	i	0.63	-10.9
C[C@H](CO)N1C[C@H](C)[C@@H](CN(C)Cc2ccc(C(=O)O)cc2)Oc2ncc(Br)cc2C1=O
    20.7&2.4	8.5&-0.5	0.8&-4.0	.	.	2.4	i	.	.
N#CC(=C=[N-])c1nc2ccccc2nc1-[n+]1cccc(NC(=O)c2ccccc2)c1
    11.8	6.8	-9.1	8.7&-11.8	5.1	1.5	i	0.691	3.9
Cn1cccc1C(=O)OCC(=O)NC(=O)NC1CCCCC1
    -2.0	-4.6	5.1	.	3.7	-5.5	i	0.687	-2.4
CC1CCCC(NC(=O)CCNC(=O)c2ccccc2Cl)C1C (stereo unspecified)
    0.2	0.4	-3.5	0.2	2.0	0.7	i	0.662	-2.0
CCN(Cc1ccccc1)C(=O)COC(=O)CNC(=O)c1ccc(C)s1
    16.8	5.2	-0.8	-0.9	1.7	-4.2	i	0.657	1.2
Cc1noc(C)c1COC(=O)c1ccc2c(c1)S(=O)(=O)c1ccccc1C2=O
    .	.	.	-10.2	5.0	3.2	.	0.707	3.8
Cc1cccc(C)c1NC(=O)C(c1ccc(C#N)cc1)n1c(=O)c(-c2ccccc2)nc2ccccc21 (stereo unspecified)
    8.8	18.7	0.9	.	.	-2.7	i	.	.
CC1CCCN(c2ccc(C(=O)NCc3cccs3)cn2)C1 (stereo unspecified)
    .	.	.	-12.6	-2.1	-1.6	.	0.678	-4.3
CC(NC(=O)c1ccc(OC2CCN(S(=O)(=O)N(C)C)CC2)cc1)C1CC1 (stereo unspecified)
    2.8	2.2	-1.1	-1.0	2.0	6.5	i	0.682	-0.8
COc1cccc(/C=C/C(=O)OCC(=O)NCCCc2ccccc2)c1OC
    14.4	9.7	-1.0	2.5	-55.6	-5.0	i	0.711	3.8
COc1ccc(C(=O)C2CCN(C(=S)NCC3CCCO3)CC2)cc1 (stereo unspecified)
    -5.4	-7.3	0.8	-16.7	5.1	2.0	i	0.643	7.8
CC1CCCCN1CCn1cnc2c([nH]c3ccccc32)c1=O (stereo unspecified)
    5.0	7.0	-9.6	.	-12.1	1.8	i	0.791	-2.8
Cc1ccc(N2CC(C(=O)Nc3ccc(N(C)C)cc3)CC2=O)cc1C (stereo unspecified)
    .	.	.	38.1	2.3	5.7	.	0.715	4.1
COC(=O)CCCCCNC(=S)Nc1ccc2[nH]c(=O)[nH]c2c1
    -3.5	5.1	-9.8	6.4	3.0	-4.0	i	0.713	4.1
Cc1ccc(C)c(CN2C(=O)CSc3ccc(C(=O)NCCN4CCOCC4)cc32)c1
    7.7	14.1	1.9	.	5.3	2.3	i	0.679	2.1
Cc1c(C)n(C)c2ccc(C(=O)NCCCN3CCCCC3)cc12
    6.5	4.2	6.7	5.1	2.2	6.2	i	0.639	8.7
COc1ccc(C(=O)Cn2nnc(-c3ccc(N4CCOCC4)cc3)n2)cc1OC
    .	.	.	-7.3	0.1	-0.2	.	0.688	9.2
O=C(COC(=O)c1c(F)cccc1F)NC(=O)NCc1ccccc1
    -8.4	-7.5	4.8	.	.	1.0	i	.	.
O=C(NNC(=O)c1ccncc1)Nc1cccc([N+](=O)[O-])c1
    25.0	28.8	7.7	14.3	6.2	-1.2	i	0.724	5.1
Cc1nn(Cc2ccc([N+](=O)[O-])cc2)c(=O)n1-c1ccc(Cl)cc1
    -3.3	3.3	-2.0	51.7	2.6	-1.0	i	0.714	4.7
COc1ccc(-n2nnnc2C(c2cccc3ccccc23)N2CCN(C/C=C/c3ccccc3)CC2)cc1 (stereo unspecified)
    0.6	0.7	8.1	.	.	-5.8	i	.	.
O=C(NCc1ccco1)c1ccccc1NS(=O)(=O)c1ccc(Br)s1
    .	.	.	23.2	5.5	15.1	.	0.697	-0.7
COc1ccccc1C=NN1C(=O)CSC1=S
    -13.8	-2.3	2.5	.	.	-2.0	i	.	-3.1
COc1cccc(OC)c1OCC(O)CN1CCN(c2ccc(F)cc2)CC1 (stereo unspecified)
    -1.3	7.3	-2.7	37.3	1.5	-0.7	i	0.658	3.1
CC1(C)Cc2c(sc(NC(=O)c3ccc(C(=O)c4ccccc4)cc3)c2C#N)C(C)(C)N1
    -17.3	-12.6	1.1	12.0	-26.2	-2.8	i	0.686	2.1
Cc1ccccc1CCNC(=O)C1CCC(=O)N(CCc2cccc(F)c2)C1 (stereo unspecified)
    -8.4	-4.8	-3.1	.	1.1	1.7	i	0.693	12.0
CCN(CC)CCCNC(=O)CSc1nc(-c2ccc(F)cc2)cc(C(F)(F)F)n1
    3.7	8.6	-0.1	.	-1.1	4.2	i	0.691	-8.2
CCOc1cc(/C=C2\N=C(SC(C)C(N)=O)N(c3ccc(OC(F)F)cc3)C2=O)ccc1O (stereo unspecified)
    -14.4	-23.4	-2.1	27.4	2.8	129.5	i	0.713	6.8
CCOc1ccccc1Nc1nnc(SCC(=O)Nc2nc(-c3ccc(OC)cc3)cs2)s1
    3.7	21.7	-1.8	-3.4	-0.3	1.8	i	0.707	-2.0
COCCN1C(=O)c2ccccc2C(C(=O)NCC2CCCO2)C1c1c[nH]c2ccccc12 (stereo unspecified)
    .	.	.	-0.8	4.1	-1.0	.	0.73	-2.2
Cc1ccn2cc(-c3ccc(O)c(O)c3)nc2c1
    0.4	4.2	-3.9	99.0*	-5.1	-0.3	i	0.559	-5.7
C=CCSc1nnc(CC(OC)OC)n1-c1ccccc1
    3.8	-1.2	-1.8	-6.4	4.3	-1.1	i	0.703	1.9
